VDR inhibitor – inhibitors of human vitamin D receptor; P11473; VDR-SRC2-3 peptide fluorescence polarization, 2 h; Potency, µM, for the others: max response, negative = inhibition, usual class: inhibitors; 400,000 compounds, 0.93% hits; AID 504847; active means well fitted inhibition curve with a large enough effect; inconclusive means small, poorly fitted or top-dose-only effect, or another doubt; inactive means no such curve, though single readings can be large or run the other way; further: series mostly up to about 120 µM
Target sequence (P11473 whole entry, looked up): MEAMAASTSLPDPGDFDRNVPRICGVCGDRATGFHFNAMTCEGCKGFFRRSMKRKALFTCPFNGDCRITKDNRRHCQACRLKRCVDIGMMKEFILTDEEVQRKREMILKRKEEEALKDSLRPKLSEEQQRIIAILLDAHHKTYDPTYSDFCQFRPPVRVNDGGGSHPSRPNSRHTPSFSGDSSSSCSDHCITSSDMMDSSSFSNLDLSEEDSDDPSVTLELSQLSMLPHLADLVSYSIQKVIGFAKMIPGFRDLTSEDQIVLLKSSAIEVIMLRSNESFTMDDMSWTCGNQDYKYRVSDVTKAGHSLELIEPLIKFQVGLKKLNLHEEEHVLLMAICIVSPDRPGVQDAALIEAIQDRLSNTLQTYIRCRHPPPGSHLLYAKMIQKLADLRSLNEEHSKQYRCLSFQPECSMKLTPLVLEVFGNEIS
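Measured by FP: displacement of SRC2-3 coactivator peptide from VDR by library compounds, following a two-hour ambient incubation.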
Starred values were filed as active, the others as inactive; ? = inconclusive; & = joins results of further samples; [ ] = remark or other dose. On the % scale 0 is the no-effect control and ±100 the full control effect; potency means the concentration at half of the fitted maximal effect. The list is partial; rates above refer to the full screens.

entry	SMILES	VDR inhibitor
1	O=C(CSc1nnc(NC(=O)c2ccccc2F)s1)NCC1CCCO1 (stereo not drawn)	-14%
2	O=C(NCc1ccco1)/C(=C/c1ccco1)NC(=O)c1ccco1	9%
3	CC(C(=O)N1CCc2ccccc21)N1CCc2ccccc2C1 (stereo not drawn)	6%
4	COc1ccc(N2CCN(C(=O)c3cn(CC4CCCCC4)nn3)CC2)cc1	8%
5	Cc1ccc(CNC(=O)CCCc2nc3ccccc3s2)cc1	-6%
6	C/C(=N\NC(=O)c1ccc(Cl)cc1)c1ccc(Br)s1	-2%
7	COc1ccc(-n2c(SCC(=O)Nc3ccccc3)nc(O)cc2=O)cc1	-13%
8	CC(C)Cc1ccc(C(C)C(N)=Nc2ccc(O)cc2)cc1 (stereo not drawn)	2%
9	OCCN1CCN(c2ncnc3c2sc2nc(N4CCOCC4)c4c(c23)CCC4)CC1	0%
10	C(=C\N1CCCCCC1)/c1nnnn1-c1ccc(-c2ccccc2)cc1	-3%
11	COc1ccc(S(=O)(=O)N(CC(=O)NCc2ccco2)C2CCCCC2)cc1OC	-2%
12	CC(C)c1ccc(/C=N/NC(=O)c2cc(-c3cccc([N+](=O)[O-])c3)n[nH]2)cc1	-12%
13	O=S(=O)(/N=C(/Nc1ccc(F)cc1F)c1ccc(Cl)cc1)c1ccccc1	4%
14	CCOC(=O)c1c(NC(=O)CCC(=O)NCc2ccco2)sc2c1CCCC2	-5%
15	C=C1CC[C@@H]2[C@](C)(CCC[C@@]2(C)/C=C/[C@@H](O)C(C)(C)O)[C@H]1CC(=O)NCCS(=O)(=O)O	-5%
16	C=CC[C@@H](CC(=O)N[C@@H](CO)Cc1ccccc1)C(=O)NC[C@@H](OC(=O)[C@@H](CC=C)Cc1ccc(F)cc1)c1ccccc1	-4%
17	COc1cc(C2N(c3ccc(Cl)c(Cl)c3)C(=O)C3CCCN32)cc(OC)c1OC (stereo not drawn)	-8%
18	Cc1c(C)c(C)c(/C=[N+](/C)[O-])c(C)c1C	-6%
19	CC(CNC(=O)c1ccc(Cn2c(=O)c3cccn3c3cccnc32)cc1)c1ccccc1 (stereo not drawn)	5%
20	CN1CCc2c(sc(NC(=O)C3CCN(S(=O)(=O)c4cccs4)CC3)c2C(N)=O)C1	-11%
21	CNn1cnc2ccsc2c1=O	-8%
22	CCOC(=O)C(NC(=O)c1ccccc1)C(C)(C)SCc1ccccc1 (stereo not drawn)	-5%
23	Cc1ccccc1NC(=O)N1C2CCC1CC(O)(c1cccnc1)C2 (stereo not drawn)	-4%
24	Cc1cccc2c(=O)cc(CSc3ccccc3NC(=O)c3cccc(F)c3)[nH]c12	17%
25	COc1ccc2ccccc2c1/C=N/NC(=O)c1cccc(Br)c1	4%
26	CCCCCOC(=O)C1=C(C)Nc2ncnn2C1c1cccs1 (stereo not drawn)	0%
27	Cc1nn(-c2ccccc2)c(CC(C)(C)C(=O)O)c1C(=O)O	5%
28	COc1cccc(C(=O)N2c3cc(C)ccc3C(C)(c3ccccc3)CC2(C)C)c1 (stereo not drawn)	-14%
29	Cn1c2ccccc2c(=O)c2ccc(NCc3ccc4c(c3)OCO4)cc21	-14%
30	Cc1cc(-c2nnc(SCC(=O)Nc3ccc(F)c(F)c3)n2N)n[nH]1	7%

Sorted by molecular weight (largest number first): three of the compounds above
entry	SMILES	VDR inhibitor
16	C=CC[C@@H](CC(=O)N[C@@H](CO)Cc1ccccc1)C(=O)NC[C@@H](OC(=O)[C@@H](CC=C)Cc1ccc(F)cc1)c1ccccc1	-4%
9	OCCN1CCN(c2ncnc3c2sc2nc(N4CCOCC4)c4c(c23)CCC4)CC1	0%
29	Cn1c2ccccc2c(=O)c2ccc(NCc3ccc4c(c3)OCO4)cc21	-14%

Six records drawn at random from those above, as already listed:
entry	SMILES	VDR inhibitor
10	C(=C\N1CCCCCC1)/c1nnnn1-c1ccc(-c2ccccc2)cc1	-3%
25	COc1ccc2ccccc2c1/C=N/NC(=O)c1cccc(Br)c1	4%
16	C=CC[C@@H](CC(=O)N[C@@H](CO)Cc1ccccc1)C(=O)NC[C@@H](OC(=O)[C@@H](CC=C)Cc1ccc(F)cc1)c1ccccc1	-4%
11	COc1ccc(S(=O)(=O)N(CC(=O)NCc2ccco2)C2CCCCC2)cc1OC	-2%
9	OCCN1CCN(c2ncnc3c2sc2nc(N4CCOCC4)c4c(c23)CCC4)CC1	0%
5	Cc1ccc(CNC(=O)CCCc2nc3ccccc3s2)cc1	-6%

Other results.
entry	SMILES	VDR inhibitor
31	COc1cccc(NC(=S)N(CCCN2CCN(C)CC2)Cc2ccco2)c1	8%
32	COc1cc2c(C(=O)N3CCCc4ccccc43)cn(C)c(=O)c2cc1OC	5%
33	COCCNC(=O)CCN1C(=O)c2cccnc2Oc2ccc(C)cc21	15%
34	CC(=O)Nc1ccc(Oc2ncccn2)cc1	11%
35	CN(C)c1ccc(S(=O)(=O)NCC(=O)NCC2CCCCC2)cc1[N+](=O)[O-]	6%
36	Cc1ccc(S(=O)(=O)N2CCN(C(=O)CSc3nnnn3C)CC2)c(C)c1	-13%
37	Cc1cc(C)c(C#N)c(Oc2ccc(F)cc2)n1	-15%
38	CCOC(=O)c1ccc(-n2c(=O)[nH]c3ccccc3c2=O)cc1	-2%
39	CCOC(=O)c1ccc(NC(=O)COC(=O)c2cn(CC)c3nc(C)ccc3c2=O)cc1	-11%
40	O=C(Nc1ccc(F)cc1)N(Cc1cccs1)Cc1cc2cc3c(cc2[nH]c1=O)OCO3	-6%
41	NC(=O)c1ccc(NC(=O)CN2CCOCC2)cc1	-18%
42	COc1cc(/C=N/NC(=O)c2cccnc2)ccc1OC(=O)c1ccc([N+](=O)[O-])cc1	32%[activator]
43	Cc1cc(OCC(=O)NC2CCN(Cc3ccccc3)CC2)c2c(C)cc(=O)oc2c1	-3%
44	C[c-]1[c-](C)[c-](C)[c-](C)[c-]1C.[Fe].c1cc2nccc(N3CCCC3)[c-]2c1 (stereo not drawn)	-7%&-12%
45	COC(C(=O)N/N=C(\C)c1ccc(O)cc1)c1ccccc1 (stereo not drawn)	-1%
46	CCCOC(c1ccccc1)(c1ccccc1)C(Oc1nc(C)cc(C)n1)C(=O)O (stereo not drawn)	4%
47	COC(=O)C(CCSC)NC(=O)c1c(C)oc2ncn(CC(C)C)c(=O)c12 (stereo not drawn)	-5%
48	Cc1ccc(-n2nc(-c3ccccc3)cc2Nc2ccccc2N)cc1	-12%
49	CC1=NN(c2cccc(Cl)c2)C(=O)C1	2%
50	CC(=O)Oc1ccc(NC(=O)C2CCCCC2)c(C(=O)O)c1	-11%
51	Cc1ccc(NC(=S)c2ccncc2)c(C)c1	35µM*
52	CCOC(=O)c1ccc(NC=C2C(=O)OC3(CCCCC3)OC2=O)cc1	19%
53	Cc1cnc(C(=O)OC(C(=O)c2c[nH]c3ccccc23)c2ccccc2)cn1 (stereo not drawn)	0%
54	COc1ccccc1N1CCN(C(=O)Nc2ccc(F)c(Cl)c2)CC1	-20%
55	N#C/C(C(=O)c1ccccc1)=C1/CCCCCN1	-2%
56	CCn1cc(CN2CCC(n3nccc3NC(=O)CCc3ccccc3)CC2)cn1	2%
57	COc1ccc(N(CC(=O)NCCSc2ccccc2)S(C)(=O)=O)cc1	0%
58	CCOc1ccc(/C=C2\SC(=S)N(N3C(=O)C4CC4C3=O)C2=O)cc1 (stereo not drawn)	-28%
59	CC(C)NC(=O)C(C)Oc1ccc(S(=O)(=O)NCc2ccc3c(c2)OCO3)cc1 (stereo not drawn)	4%
60	C[N+]1(C2CCC3CCCC2C3O)CCCCC1 (stereo not drawn)	25%
61	Cc1nc2scc(C)n2c(=O)c1S(=O)(=O)NC(C)c1ccccc1 (stereo not drawn)	?
62	O=C(N/N=C/c1cc2c(cc1Cl)OCO2)c1cccc(Br)c1	-6%
63	COc1ccc(OC)c(NC(=O)c2c(NCc3sccc3C)sc3c2CCCCC3)c1	3%
64	CCCCOCCCNC(=O)C1CCCCC1	1%
65	C=CCNc1nc(N)c([N+](=O)[O-])c(NCc2ccccc2)n1	-10%
66	COc1cc(/C=C2\SC(=N)N(c3ccc(F)cc3)C2=O)ccc1O	13%
67	C/C=C/C=C/C(=O)O	3%&-10%
68	CCCOc1ccc(OCCOCCN2CCc3ccccc3C2)cc1	-18%
69	CCOc1ccccc1/C=N/NC(=O)CNC(=O)c1ccc(S(=O)(=O)N2CCOCC2)cc1	-2%
70	CCOc1cccc2sc(N(CCCN(C)C)C(=O)Cc3ccccc3)nc12	-3%
71	O=C(O)c1ccccc1NS(=O)(=O)c1cccc(-n2sc3ccccc3c2=O)c1	10µM*
72	CN(c1ccccc1)S(=O)(=O)c1ccc(NC(=O)C2CC2)cc1	5%
73	CC(=O)/C=C\c1cn(-c2ncc(C(F)(F)F)cc2Cl)c2ccccc12	-6%
74	Cc1cc2c(c(=O)n1CC1CCCO1)C(c1ccco1)C(C#N)=C(N)O2 (stereo not drawn)	9%
75	CC(=O)C[C@@H](O)CC(=O)[C@@H]1OC(=O)CCCCCCCCc2ccccc21	-10%
76	CO/N=C(\Cn1ncc(N2CCOCC2)c(Br)c1=O)c1ccc(Cl)cc1	-14%
77	COc1ccc(NC(=O)CCc2nnc3n(Cc4ccccc4Cl)c(=O)c4ccccc4n23)cc1	-2%
78	CCOc1ccc(C(CC(=O)O)NC(=O)C23CC4CC(CC(C4)C2)C3)cc1 (stereo not drawn)	-2%
79	Cc1ccc(-c2cc(-c3ccccc3)no2)c(O)c1	5%
80	Cc1cc(F)ccc1S(=O)(=O)N1CCCOC1CNC(=O)C(=O)NCCN1CCOCC1 (stereo not drawn)	-8%
81	CCOc1ccc2cc(C(=O)NCc3ccccc3)c(=N)oc2c1	4%
82	COc1cc(OC)cc(C(=O)NC2CCN(CCCOc3ccccc3)CC2)c1	10%
83	Cc1ccc(NC(=O)c2ccc(-c3ccccc3)s2)cc1	1%
84	COc1ccccc1CNC(=O)C1CCN(S(=O)(=O)c2ccc3c(c2)C(C)(C)C(=O)N3C)CC1	-2%
85	CCOC(=O)c1ccc(CC2SC(N)=NC2=O)cc1 (stereo not drawn)	-4%
86	COc1ccccc1C(=O)N/C(=C\c1cn(S(=O)(=O)N(C)C)c2ccccc12)C(=O)N1CCOCC1	3%
87	Nc1ccc(Cl)c(S(=O)(=O)Nc2cccc(Cl)c2)c1	-12%
88	COc1cccc(C2CC(=O)Nc3c2c(=O)n(C)c2nc4ccccc4n32)c1OC (stereo not drawn)	-8%
89	O=C(NC1CC(=O)N(c2cccc(F)c2)C1)c1ccc(S(=O)(=O)N2CCCCC2)cc1 (stereo not drawn)	-2%
90	Cc1ccc(/C=C2\CC(C)CC3=C2NC(=S)NC3c2ccc(C)cc2)cc1 (stereo not drawn)	?

(continued)
entry	SMILES	VDR inhibitor
91	Cc1c(CN2CCCC(CO)(Cc3cccc(Cl)c3)C2)cnn1C (stereo not drawn)	8%
92	Cc1noc(C)c1COc1ccc(C(=O)OCC(=O)N2CC(=O)Nc3ccccc32)cc1	26%
93	COC(=O)c1ccc(NC(=S)NCCC2=CCCCC2)cc1	-16%
94	Cn1c(=O)cc(OCC(=O)NCc2ccccn2)c2ccccc21	-4%
95	CCCn1c(COc2ccc(C(=O)O)cc2)nc2ccccc21	-4%
96	CC(NC(=O)COC(=O)CCN1C(=O)C2CC=CCC2C1=O)c1ccc(Br)cc1 (stereo not drawn)	12%
97	O=C(CNS(=O)(=O)c1ccccc1)OCC(=O)c1ccc(Br)cc1	6%
98	COc1ccc(-n2nc3c(=O)[nH][nH]c3cc2=O)cc1	-18%
99	COc1ccc(-c2coc3c(O)c(OC)ccc3c2=O)cc1	-2%
100	O=C(CN1CCCC1)Nc1sc2c(c1C(=O)Nc1ccc(Br)cc1)CCC2	-3%
101	CCCNC(=O)CN1C(=O)NC2(CCCc3cc(OC)ccc32)C1=O (stereo not drawn)	9%
102	CCN1c2ccccc2S(=O)(=O)c2ccccc21	2%
103	NC(=O)c1ccc(OCC(F)(F)C(F)(F)C(F)(F)C(F)(F)C(F)(F)C(F)F)cc1	8%
104	COc1ccc2nc(NC(=O)CSc3nc(C)cc(C)n3)sc2c1	-16%
105	CCS(=O)(=O)c1ccc2oc(SCC(=O)c3ccco3)nc2c1	3%
106	CSc1ncnc2[nH]ncc12	-5%
107	Cc1cccc(N2CCN(S(=O)(=O)c3ccc4[nH]c(=O)ccc4c3)CC2)c1C	7%
108	Clc1ccc(C2=NN(c3ccccc3)C(c3ccco3)C2)cc1 (stereo not drawn)	-10%
109	Cc1ccccc1-c1nc(CN2CCCC(C(=O)NCc3cccnc3)C2)c(C)o1 (stereo not drawn)	-7%
110	O=C(CCC(=O)N1CCN(Cc2ccc(F)cc2)CC1)Nc1nnc(C2CCCCC2)s1	29%
111	CC(C)c1nc2ccccc2n1CC(O)COC1CCCCC1 (stereo not drawn)	13%
112	C=CCN(CC=C)Cc1c(C)[nH]c2ccc(C(=O)OCC)cc2c1=O	-5%
113	COc1ccc(-c2csc3ncnc(NCCO)c23)cc1	-13%
114	O=C(CC1CCCCC1)NCc1cn2ccsc2n1	19%
115	Cc1ccc2cc(CN(Cc3ccco3)C(=O)c3ccccc3)c(=O)[nH]c2c1C	-2%
116	O=Cc1ccc(N2CCCCCC2)cc1	-3%
117	CC1CCC(NC(=O)C2CCC(CNS(=O)(=O)c3ccccc3)CC2)CC1 (stereo not drawn)	7%
118	CCC(=O)N(CCC(c1ccc(C)cc1)c1ccco1)Cc1ccco1 (stereo not drawn)	?
119	Cc1ccc(NC(=O)c2ncn(CCCN3CCN(c4ncccn4)CC3)n2)cc1C	-4%
120	Cc1ccc(S(=O)(=O)N(CC(=O)Nc2ccccc2C(=O)O)c2ccccc2C)cc1	-11%
121	O=C(COC(=O)c1ccccn1)NCc1cccs1	-16%
122	O=C(NNS(=O)(=O)c1ccc(Cl)cc1)c1ccc(S(=O)(=O)N2CCCCC2)cc1	4%
123	CCOC(=O)CNS(=O)(=O)CCN1C(=O)c2ccccc2C1=O	-5%
